AF4-AF9 inh: MLL-AF4/AF9 protein interaction inhibition. P42568. AlphaScreen, biotin-AF4 peptide binding to FLAG-AF9. inhibition, % at 10 µM. 350,000 compounds, 0.47% hits. AID 651704;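 active = every replicate reaching a set inhibition limit, whatever the replicate mean, cut at about 25% in these data; inconclusive = mean inhibition reaches that limit but some replicates miss it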;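 note: 0% = plate neutral control median and 100% = total signal loss; the record names both 10 and 1 µM as test concentration; the first replicate is given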
Target sequence (P42568 whole entry, looked up): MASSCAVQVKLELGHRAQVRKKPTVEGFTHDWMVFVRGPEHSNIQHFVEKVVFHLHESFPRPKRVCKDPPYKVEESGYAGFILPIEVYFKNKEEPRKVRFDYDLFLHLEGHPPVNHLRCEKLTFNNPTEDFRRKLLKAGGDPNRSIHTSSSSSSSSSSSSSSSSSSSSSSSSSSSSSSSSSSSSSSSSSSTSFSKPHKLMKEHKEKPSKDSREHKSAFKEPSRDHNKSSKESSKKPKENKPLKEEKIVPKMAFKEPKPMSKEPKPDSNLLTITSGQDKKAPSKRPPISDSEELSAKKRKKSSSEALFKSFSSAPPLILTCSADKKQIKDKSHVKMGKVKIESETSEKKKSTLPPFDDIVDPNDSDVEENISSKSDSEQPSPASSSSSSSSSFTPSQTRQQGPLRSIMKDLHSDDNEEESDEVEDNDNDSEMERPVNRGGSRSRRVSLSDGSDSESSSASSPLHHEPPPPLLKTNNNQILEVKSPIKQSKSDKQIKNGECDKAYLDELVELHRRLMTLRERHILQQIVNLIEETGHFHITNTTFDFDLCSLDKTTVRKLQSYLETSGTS
A1 inh: inhibitors of the anti-apoptotic protein A1, read as caspase activation; MEF A1-2A-BIM cells, Caspase-Glo 3/7 luminescence, 3 h; percent of clofoctol response, vehicle zero; caspase activation, % (concentration not given with the values); 330,000 compounds, 0.066% hits; AID 2462;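 active = over half of replicate activation scores above 10%, or exactly half above 10 with the replicate mean above 10; inconclusive = replicate mean below 10 yet half the replicates above 10; inactive = over half of replicates below 10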;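 note: wells of about 30 µL received 50 nL stock; many hits fall short of the cut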
RanGTP-Imp inh: inhibitors of RanGTP-importin-beta interaction, primary screen, biochemical, FRET, CFP-Ran, YFP-importin-beta, homogeneous; cell-free CFP-Ran/YFP-importin-beta FRET ratio; inhibition, % (concentration not given with the values); 300,000 compounds, 1.1% hits; AID 2216;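 active = most replicates above 15%; inconclusive = exactly half above 15%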;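 note: 0% = DMSO wells and 100% = Ran loaded with GDP instead of GTP; wells of about 40 µL received 100 nL stock; the first replicate is given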
Vif A3G: HIV-1 Vif–A3G interaction blockers – biochemical, TR-FRET, GST-Vif 1-94, biotin-A3G peptide, dose response retest, primary screen (AID 1117319); TR-FRET GST-Vif / biotin-A3G peptide binding; higher % means a stronger effect; test concentration not given here; strong numbers were not always called active; 260,000 compounds, 0.57% hits; inhibition, %, or IC50 in µM where a hit was titrated;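 active = above the screen mean plus three standard deviations and confirmed in dose response; inconclusive = results disagree or hit not tested in dose response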;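 note: Vif residues 1-94 fused to GST binding biotinylated APOBEC3G peptide 110-148; 0% = full assay without inhibitor and 100% = GST in place of GST-Vif; retest series ran down from 100 µM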
Calb FLC: C. albicans growth modulation with fluconazole; C. albicans CaCi-2 (fluconazole-resistant clinical isolate) + fluconazole, Alamar Blue growth, 48 h; growth inhibition, % (concentration not given with the values); 300,000 compounds, 0.57% hits; AID 1979;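 active = most replicates above 75%; inconclusive = exactly half above 75%; inactive = most below 75%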;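 note: all wells also contain fluconazole at 8 µg/ml as a sub-toxic cotreatment; 0% = median of DMSO wells and 100% = median of geldanamycin control wells; wells of about 8 µL received 7.5 nL stock; the first replicate is given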
Beta cell apopt: blocks beta cell apoptosis | INS-1E cytokine-induced death, ATP luminescence, 48 h; percent of positive-control rescue, neutral wells zero | protection from apoptosis, % (test concentration not listed) | 300,000 compounds, 0.8% hits | AID 435005;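 active = all replicates at 75% or more, or half of them and the mean; inconclusive = half reach 75% but not the mean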;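 note: 0% = cytokine-treated negative control wells and 100% = positive control rescue; higher means more ATP so stronger rescue from cytokine killing; wells of about 40 µL received 100 nL stock; the first replicate is given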
rRNA inh HTS: selective bacterial rRNA inhibition in E. coli; AID 720706; GFP signal change (wild-type ribosome), % (test concentration not listed); E. coli WT GFP vs humanized-ribosome RFP mutants, fluorescence, 24 h; active compounds read low; DMSO median 0, no signal -100; 350,000 compounds, 1.6% hits;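 active = significant combined selectivity score with lowered wild-type GFP, culture density cut under 30%, mutant RFP and density less affected; inactive = any of these conditions unmet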; note: one replicate is shown; some compounds called inactive have numbers as strong as hits
T cruzi inh: T. cruzi replication inhibition; T. cruzi beta-gal in NIH3T3, luminescence, 90 h; inhibition, % (test concentration not listed); 300,000 compounds, 1.4% hits;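 active = mean inhibition across valid replicates above about 55%, limit read from the data; inconclusive = mean below that limit but half or more replicates reach it; inactive = mean below it, under half of replicates reach it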;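 note: signal also drops with host cell toxicity which is not excluded here; 0% = plate median of DMSO wells and 100% = zero luminescence signal; higher percent means less beta-gal luminescence so fewer parasites; stock transfer was 50 nL into about 50 µL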
rRNA inh HTS OD600: further read-out of rRNA inh HTS, marked with its call; OD600 change, %; measured here: OD600 growth;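 optical density of the mix in the first replicate; 0 = DMSO median and -100 = no signal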
rRNA inh HTS RFP: further read-out of rRNA inh HTS, marked with its call; RFP signal change, %; measured here: RFP humanized mutant strains;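 first replicate; 0 = DMSO median and -100 = no signal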
An asterisk follows results filed as active; ? = inconclusive; nt = no result given.

SMILES	AF4-AF9 inh	A1 inh	RanGTP-Imp inh	Vif A3G	Calb FLC	Beta cell apopt	rRNA inh HTS	rRNA inh HTS OD600	rRNA inh HTS RFP	T cruzi inh
CC1(C)CC(=O)C(N=Nc2cccc([N+](=O)[O-])c2)=C(O)C1	nt	-1.8	0.0	13%	-7	2	11	-1	4.7	-11
O=C(Nc1cccc(S(=O)(=O)Nc2ccc(Cl)cc2)c1)c1cc2c(s1)CCCC2	nt	0.5	2.6	nt	-8	12	nt	nt	nt	65*
COc1ccc(/C=N/N2CCN(Cc3ccc(C)cc3)CC2)cc1Br	15	0.4	7.4	nt	0	nt	-20	-15	-4.5	27
O=c1cc(O)nc(SCc2ccccc2)n1-c1ccc(F)cc1	nt	-0.1	-1.4	2%	3	nt	nt	nt	nt	15
COC(=O)c1nn(-c2ccc(OC)cc2)c(=O)cc1O	0.4	1.4	1.0	9%	-1	-5	13	20	0.8	2
CCN(CC)S(=O)(=O)c1ccc(C(=O)NNC(=O)C2COc3ccccc3O2)cc1 (stereo unspecified)	1.1	-0.4	nt	nt	nt	-1	1	3	-1.3	nt
O=C(NCCOc1ccccc1F)Nc1ccc(Br)cc1	-3.8	-1.1	-0.2	3%	3	0	-21	-5	-5.6	5
Cc1ccc(CCNC(=O)C2CC(=O)N(C3CCCCC3)C2)cc1 (stereo unspecified)	-2.0	-0.1	1.6	nt	5	-5	-4	-2	2.2	-4
CCCNCC1C(Oc2ccc(Cl)cc2)C(=O)N1c1ccccc1C (stereo unspecified)	3.1	0.8	3.5	-8%	-52	3	-14	0	2.0	-14
CN1CCN(S(=O)(=O)c2cccc(C(=O)N3CCc4ccccc43)c2)CC1	1.4	-0.3	?	nt	-9	-3	6	6	-0.2	11
COc1ccc(S(=O)(=O)N2CCOCC2)cc1NC(=O)CSc1cccc[n+]1[O-]	8.6	0.0	-1.3	27%	6	-6	11	1	-4.6	-12
O=C(COc1ccc(S(=O)(=O)N2CCOCC2)cc1)N1CCOCC1	1.4	-0.1	nt	15%	nt	-2	-10	6	2.8	nt
O=C(OCCN1C(=O)CCC1=O)c1ccc(S(=O)(=O)N2CCCCC2)cc1	nt	0.3	-1.2	15%	-12	-5	nt	nt	nt	11
CCc1ccccc1NC(=O)CCCSc1nc2ccccc2s1	-7.6	-0.2	3.5	nt	-14	-2	-8	-9	-1.3	9
COc1ccc(C(=O)Nc2ccc3nc4n(c(=O)c3c2)CCCC4)cc1[N+](=O)[O-]	nt	0.8	-0.2	?	-1	-11	nt	nt	nt	-3
COc1ccc(CN2CCN(CC3CC3)CC2CCO)c(C)c1C (stereo unspecified)	-6.8	0.5	-0.8	nt	-1	-5	9	19	0.8	-13
Cc1cc(C(=O)Nc2sc(C)c(C)c2C#N)c(C)o1	nt	-0.9	6.7	2%	29	5	nt	nt	nt	17
O=C1C=C(Nc2ccc(Cl)cc2)C(=O)N1c1ccc(Cl)cc1	0.1	-0.5	1.5	23%	4	-5	nt	nt	nt	-22
Cc1cc(C)c2c(c1)NC(c1cc3c(cc1Br)OCO3)C1CC=CC21 (stereo unspecified)	nt	0.1	4.7	-4%	-11	3	nt	nt	nt	25
Cn1ncc(Oc2ccc([N+](=O)[O-])cc2)c(Cl)c1=O	0.3	0.5	3.7	6%	-7	-3	8	8	-0.1	3
COc1ccc(N2C(=O)CC(Sc3ccccc3C(=O)O)C2=O)c([N+](=O)[O-])c1 (stereo unspecified)	1.4	-0.2	3.1	5%	3	-2	15	10	3.9	-25
Cn1c(=O)c2sccc2n2c(CCCC(=O)NC3CCN(Cc4ccccc4)CC3)nnc12	1.1	0.3	5.1	nt	3	2	4	0	2.5	5
COc1cccc(-c2ccc3ncnc(NCc4ccc5c(c4)OCO5)c3c2)c1	-5.0	-0.7	nt	nt	nt	-27	10	8	13	nt
COc1cccc(NC(=O)CN(C)C(=O)c2ccccc2OCc2c(C)noc2C)c1	2.8	0.4	3.7	1%	1	-2	1	0	0.2	-10
COCc1nc(-c2cc(OC)c(OC)c(OC)c2)no1	nt	0.1	-2.9	20%	-7	1	nt	nt	nt	-3
CCCOc1ccc(Cn2cnc3ccccc32)cc1	nt	-0.8	nt	7%	nt	15	-52	-78	-13	nt
Cc1c(CCO)c(=O)oc2n[nH]c(-c3ccccc3)c12	-1.5	-0.8	-2.2	3%	1	nt	20	7	-2.7	-11
Cc1snc(SCC(=O)N/N=C(\N)COc2ccc(F)cc2)c1C#N	nt	0.4	3.2	-3%	-3	-5	nt	nt	nt	11
CCOc1ccc(N2C(=O)CC(N3CC(C)OC(C)C3)C2=O)cc1 (stereo unspecified)	nt	-0.1	-1.9	1%	?	0	nt	nt	nt	-2
O=C(OCCOc1ccccc1)c1cccc(S(=O)(=O)N2CCOCC2)c1	-0.3	0.5	nt	-12%	nt	0	4	7	-0.1	nt
COc1cc(N2CN=c3s/c(=C\c4ccccn4)c(=O)n3C2)cc(OC)c1OC	nt	0.1	-1.8	0%	7	-3	nt	nt	nt	3
CCOC(=O)c1c(C)oc(NC(=O)COc2ccc(Cl)cc2C)c1C#N	nt	-0.6	?	-6%	-4	-3	nt	nt	nt	-6
CCOC(=O)c1ccc(-n2ccnc2)c(NC(=O)c2ccc(C(C)(C)C)cc2)c1	nt	0.5	0.0	-5%	-20	4	nt	nt	nt	?
O=C(O)[C@H](Cc1ccccc1)N1C(=O)c2c(Cl)c(Cl)c(Cl)c(Cl)c2C1=O	-4.8	-0.6	2.1	nt	-9	-1	-39*	-2.3*	-9.6*	-35
O=C(N/N=C\c1cc2c(cc1Cl)OCO2)c1cccs1	-0.6	?	-2.9	-9%	-5	7	-1	5	2.6	9
C=CCn1c(Br)nc2c1c(=O)n(C)c(=O)n2C	nt	0.1	1.8	3%	0	-3	9	8	2.4	-4
O=C1c2cccc3c(N4CCCCC4)ccc(c23)C(=O)N1c1cccc(O)c1	-3.1	1.3	-266	-5%	11	8	13	-11	0.4	31
CN1CCN(NC(=O)NC2CCCCC2)CC1	-5.3	0.9	1.1	nt	-7	-4	5	14	0.2	6
CSc1ccc(/C=C/C(=O)OCC(=O)N(C)CCC#N)cc1	-1.5	0.3	2.2	8%	-2	-4	12	20	-1.1	4
CCOc1ccc(NC(=O)Cc2c(O)c3ccccc3[nH]c2=O)cc1	nt	0.8	0.8	-4%	2	-18	nt	nt	nt	-6
Cc1ccc(S(=O)(=O)Nc2ccc(-c3ccc4nncn4n3)cc2)cc1	3.7	0.2	-3.5	-4%	-6	-7	-1	-1	-1.2	2
CCOc1ccccc1N1CCN(S(=O)(=O)c2cccs2)CC1	5.0	0.1	4.6	3%	41	3	-24*	-17*	8.5*	1
COCCn1c(C)cc(C(=O)CSc2cc(C)c3ccccc3n2)c1C	nt	-0.3	-2.3	nt	-7	2	nt	nt	nt	24
COc1ccccc1NC(=O)c1ccc(NC(=O)CSc2nnnn2C)cc1	nt	-0.3	4.5	-3%	3	-7	nt	nt	nt	14
CCOC(=O)CN(C(=O)CN1CCOCC1)c1ccc(Br)cc1	nt	-0.3	3.0	?	-9	-2	nt	nt	nt	-9
CC(C)c1c(C#N)c(N)nc(SCC(=O)c2cc3ccccc3oc2=O)c1C#N	nt	1.3	1.1	8%	-3	-2	nt	nt	nt	-11
C=CCNC(=O)Cn1c(=O)c2c(ncn2CCC(C)C)n(Cc2ccccc2)c1=O	-3.5	1.9	-3.3	nt	-5	nt	2	10	-1.4	-8
O=C(Nc1nnc(C2CC2)s1)c1cccc(S(=O)(=O)N2CC(c3ccccc3)CC2=O)c1 (stereo unspecified)	-12	nt	2.8	1%	2	nt	6	15	-0.4	-4
COc1ccc(CCNC(=O)C2CC(=O)N(c3ccccc3)C2)cc1OC (stereo unspecified)	nt	-0.5	-4.3	2%	16	nt	nt	nt	nt	-2
Cc1ccc(NC(=O)Cn2c(=S)[nH]c3ccccc32)cc1	-0.9	1.8	3.3	-35%	-10	nt	8	5	1.2	-6
CCNC(=S)NNC(=O)c1cc(-c2cccc(OCC)c2)nc2ccccc12	nt	-3.8	4.0	7%	13	27	nt	nt	nt	-2
Cc1cc(C)c(S(C)(=O)=O)c(Oc2cccc(Cl)c2)n1	nt	0.2	-1.9	-4%	2	7	nt	nt	nt	15

12 entries from above in a different format.
SMILES | AF4-AF9 inh | A1 inh | RanGTP-Imp inh | Vif A3G | Calb FLC | Beta cell apopt | rRNA inh HTS | rRNA inh HTS OD600 | rRNA inh HTS RFP | T cruzi inh
CN1CCN(NC(=O)NC2CCCCC2)CC1 | -5.3 | 0.9 | 1.1 | nt | -7 | -4 | 5 | 14 | 0.2 | 6
CSc1ccc(/C=C/C(=O)OCC(=O)N(C)CCC#N)cc1 | -1.5 | 0.3 | 2.2 | 8% | -2 | -4 | 12 | 20 | -1.1 | 4
CCOc1ccc(NC(=O)Cc2c(O)c3ccccc3[nH]c2=O)cc1 | nt | 0.8 | 0.8 | -4% | 2 | -18 | nt | nt | nt | -6
Cc1ccc(S(=O)(=O)Nc2ccc(-c3ccc4nncn4n3)cc2)cc1 | 3.7 | 0.2 | -3.5 | -4% | -6 | -7 | -1 | -1 | -1.2 | 2
CCOc1ccccc1N1CCN(S(=O)(=O)c2cccs2)CC1 | 5.0 | 0.1 | 4.6 | 3% | 41 | 3 | -24* | -17* | 8.5* | 1
COCCn1c(C)cc(C(=O)CSc2cc(C)c3ccccc3n2)c1C | nt | -0.3 | -2.3 | nt | -7 | 2 | nt | nt | nt | 24
COc1ccccc1NC(=O)c1ccc(NC(=O)CSc2nnnn2C)cc1 | nt | -0.3 | 4.5 | -3% | 3 | -7 | nt | nt | nt | 14
CCOC(=O)CN(C(=O)CN1CCOCC1)c1ccc(Br)cc1 | nt | -0.3 | 3.0 | ? | -9 | -2 | nt | nt | nt | -9
CC(C)c1c(C#N)c(N)nc(SCC(=O)c2cc3ccccc3oc2=O)c1C#N | nt | 1.3 | 1.1 | 8% | -3 | -2 | nt | nt | nt | -11
C=CCNC(=O)Cn1c(=O)c2c(ncn2CCC(C)C)n(Cc2ccccc2)c1=O | -3.5 | 1.9 | -3.3 | nt | -5 | nt | 2 | 10 | -1.4 | -8
O=C(Nc1nnc(C2CC2)s1)c1cccc(S(=O)(=O)N2CC(c3ccccc3)CC2=O)c1 (stereo unspecified) | -12 | nt | 2.8 | 1% | 2 | nt | 6 | 15 | -0.4 | -4
COc1ccc(CCNC(=O)C2CC(=O)N(c3ccccc3)C2)cc1OC (stereo unspecified) | nt | -0.5 | -4.3 | 2% | 16 | nt | nt | nt | nt | -2

Screening results: PubChem, several laboratories

Only part of the results is shown (hit frequency here may not be typical).
